# YopH PTP inh = inhibitors of Yersinia enterocolitica YopH tyrosine phosphatase. AID 898. inhibition, %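 (about 10 µM by stock and volumes)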. 140,000 tested, 0.16% active. fluorescence Ex485/Em525;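 active = inhibition of 50% or more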;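 note: controls were vehicle for no effect and minimum signal wells for full effect; inactives centre near -20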
# Mtb betalactam = beta-lactam sensitization of Mtb H37Rv; M. tuberculosis H37Rv growth with meropenem, percent inhibition; hits of this screen are not shown here; inhibition, % at 25 µM; 330,000 tested, 0.27% active; AID 434955;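 active = about 74% or more and at least 40 points above the plate without the antibiotic, then above 30% in a dose series; inconclusive = first-round hits that could not be retested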;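 note: growth measured after seven days incubation then overnight dye step; 0% = bacteria only wells and 100% = bacteria with antibiotic; twin plates without the antibiotic show which effects depend on it; some results filed as inactive read as strong as hits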
# RecA splice inh = blocks M. tuberculosis RecA intein splicing. inhibition, %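 (about 9 µM by stock and volumes)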. P9WHJ3. cell-free RecA intein splicing, fluorescence. 290,000 tested, 0.75% active; in the data active = inhibition above about 30%; inconclusive = no clear call, values can overlap the other calls;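 note: 0% = vehicle wells and 100% = reference inhibitor control wells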
# Target sequence (P9WHJ3 whole entry, looked up, canonical isoform): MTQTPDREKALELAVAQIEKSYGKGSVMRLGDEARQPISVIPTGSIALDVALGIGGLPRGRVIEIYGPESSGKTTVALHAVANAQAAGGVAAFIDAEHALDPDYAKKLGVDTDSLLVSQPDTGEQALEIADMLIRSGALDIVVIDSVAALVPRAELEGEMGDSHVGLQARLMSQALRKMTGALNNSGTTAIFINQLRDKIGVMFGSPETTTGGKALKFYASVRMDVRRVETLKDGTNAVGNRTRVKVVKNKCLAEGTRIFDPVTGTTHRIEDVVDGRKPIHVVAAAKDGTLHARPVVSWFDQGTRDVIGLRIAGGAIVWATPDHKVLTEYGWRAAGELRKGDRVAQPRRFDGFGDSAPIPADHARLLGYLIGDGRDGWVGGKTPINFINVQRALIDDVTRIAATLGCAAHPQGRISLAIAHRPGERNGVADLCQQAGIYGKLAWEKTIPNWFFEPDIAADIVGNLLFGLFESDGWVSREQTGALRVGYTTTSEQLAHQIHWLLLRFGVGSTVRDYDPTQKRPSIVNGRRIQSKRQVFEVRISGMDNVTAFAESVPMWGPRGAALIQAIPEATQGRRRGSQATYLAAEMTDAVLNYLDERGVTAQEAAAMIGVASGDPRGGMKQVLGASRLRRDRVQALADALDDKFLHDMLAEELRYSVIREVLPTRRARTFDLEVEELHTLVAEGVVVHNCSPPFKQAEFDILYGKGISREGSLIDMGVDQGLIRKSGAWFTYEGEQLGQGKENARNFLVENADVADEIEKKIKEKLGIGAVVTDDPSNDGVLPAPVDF
# Arbovirus anti = antivirals against arbovirus infection | arbovirus infection cell-based antiviral screen | inhibition, % at 10 µM | 200,000 tested, 0.37% active | AID 1251;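 active = inhibition from about 30%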;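 note: bluetongue infection of BSR cells; cell survival read as ATP light after 72 h; 0% = infected wells without compound and 100% = uninfected wells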
# Mtb growth = M. tuberculosis H37Rv growth inhibitors, H37Rv strain (AID 1626) | 220,000 tested, 0.95% active | M. tuberculosis H37Rv growth inhibition; higher % means a stronger effect | inhibition, % at 10 µM, or IC50 in µM where a hit was titrated;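 active = confirmed in a dose series; inconclusive = inhibition above 80% but not taken into the dose series; inactive = below 80% or under 30% at every dose of the series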;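 note: bacteria incubated seven days before Alamar blue readout; 0% = bacteria only wells and 100% = bacteria with antibiotic wells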
# Arbovirus anti repeat = further read-out of Arbovirus anti, marked with its call; inhibition, %; measured here: 10K subset replicate screen; many hits read low in the repeat;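 first of two repeat runs on a subset; 0% = infected and 100% = uninfected wells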
# An asterisk follows results filed as active; ? = inconclusive; · = not tested or not shown. A portion of the library; count on the stated rates, not on these rows.
SMILES,YopH PTP inh,Mtb betalactam,RecA splice inh,Arbovirus anti,Mtb growth,others
O=C1S/C(=C/c2ccccc2F)C(=O)N1CCN=C1NS(=O)(=O)c2ccccc21,23,-7,1.8,3,1%,
COc1ccc(Cl)cc1NC(=S)NCCc1c[nH]c2ccccc12,-37,-4,4.8,-22,8%,
CCN(C(=O)c1cc(Cl)ccc1OC)C1CCCCC1,1,14,1.0,6,4%,
CCOC(=O)CN1C(=O)C(O)=C(C(C)=O)C1c1ccccc1 (centres undefined),-34,23,3.4,2,2%,
Cc1cc(C)c(NC(=O)CSc2nc(=O)n(CCN3CCOCC3)c3c2CCC3)c(C)c1,·,3,-1.3,·,·,
O=C(COc1coc(CN2CCN(c3ccccc3)CC2)cc1=O)NC1CCCC1,·,-1,0.0,·,·,
CC(C)(C)OCC(NC(=O)C(CC(N)=O)NC(=O)OC(C)(C)C)C(=O)OC(C)(C)C (centres undefined),-20,1,·,-2,0%,
CCOc1ccc(NC(=O)Nc2ccccc2SC)cc1,·,25,-2.8,-7,47%,
CCc1[nH]nc2c1C(c1ccc(C)o1)C(C#N)=C(N)O2 (centres undefined),·,-11,49*,2,-7%,
COc1ccc(NC(=O)NC23CC4(C)CC(C)(CC(C)(C4)C2)C3)cc1OC,-29,2,-1.1,0,1%,

# Nothing new here: an excerpt of the list.
SMILES,YopH PTP inh,Mtb betalactam,RecA splice inh,Arbovirus anti,Mtb growth,others
CC(C)(C)OCC(NC(=O)C(CC(N)=O)NC(=O)OC(C)(C)C)C(=O)OC(C)(C)C (centres undefined),-20,1,·,-2,0%,
CCOc1ccc(NC(=O)Nc2ccccc2SC)cc1,·,25,-2.8,-7,47%,
CCc1[nH]nc2c1C(c1ccc(C)o1)C(C#N)=C(N)O2 (centres undefined),·,-11,49*,2,-7%,
COc1ccc(NC(=O)NC23CC4(C)CC(C)(CC(C)(C4)C2)C3)cc1OC,-29,2,-1.1,0,1%,

# More results follow:
SMILES,YopH PTP inh,Mtb betalactam,RecA splice inh,Arbovirus anti,Mtb growth,others
COc1ccc(NC(=O)c2nnn(CC(=O)Nc3ccc4c(c3)OCO4)c2N)cc1OC,·,11,0.3,·,·,
COc1ccc(NC(=O)CS(=O)CC(=O)NC2CCCc3ccccc32)cc1 (centres undefined),-37,-6,-1.3,-3,-3%,
O=C(N/N=C/c1cc2c(c([N+](=O)[O-])c1)OCO2)c1ccncc1,·,99,-4.3,·,·,
Nn1cnnc1SCC(=O)N(C1CCCCC1)C1CCCCC1,·,-2,-17,8,1%,
COc1cc(S(=O)(=O)N2CCN(c3ccc(F)cc3)CC2)ccc1Cl,-51,4,13,14,3%,
O=C(Nc1nccs1)Oc1ccccc1,-17,4,·,4,-4%,
CC(C)Sc1nnc(NC(=O)CCc2ccccc2)s1,·,-8,-0.4,14,1%,
CC(NC(=O)C1CCCC1)C1CC2CCC1C2 (centres undefined),-15,-8,-0.8,8,-3%,
CCCc1[nH]n(-c2ccc([N+](=O)[O-])cc2)c(=O)c1C=NCCN1CCNCC1,·,2,0.1,11,-1%,
COCCn1c(CN2CCN(C(=O)c3ccco3)CC2)nc2c1c(=O)n(C)c(=O)n2C,·,7,1.2,·,·,

# Filtered by structure: the compounds so far with fluorine.
SMILES,YopH PTP inh,Mtb betalactam,RecA splice inh,Arbovirus anti,Mtb growth,others
O=C1S/C(=C/c2ccccc2F)C(=O)N1CCN=C1NS(=O)(=O)c2ccccc21,23,-7,1.8,3,1%,
COc1cc(S(=O)(=O)N2CCN(c3ccc(F)cc3)CC2)ccc1Cl,-51,4,13,14,3%,

# (more compounds)
SMILES,YopH PTP inh,Mtb betalactam,RecA splice inh,Arbovirus anti,Mtb growth,others
COCCCn1c(C)c(C(C)=O)cc(NC(=O)c2ccccc2)c1=O,·,3,1.5,0,2%,
COc1ccc(C2c3c(oc4ccccc4c3=O)C(=O)N2CC2CCCO2)cc1 (centres undefined),-40,10,2.9,1,-11%,
CC(=O)C(Cc1ccccc1)NC(=O)CCl (centres undefined),·,77,-1.6,6,57%,
COc1ccc(/C(C)=N/NC(=S)NCCc2ccccc2)cc1,·,90,5.0,4,?,
CCCCn1c(N)c(N(CC)C(=O)C2=COCCO2)c(=O)[nH]c1=O,·,1,-2.2,·,·,
COc1cc(C2Nc3ccc4ncccc4c3C3=C2C(=O)CCC3)cc(OC)c1OC (centres undefined),·,19,0.0,-9,0%,
O=C(CN1CC=C(c2ccccc2)CC1)NC(=O)NCc1ccccc1,·,-6,2.3,4,-2%,
CCc1cccc(C)c1NC(=O)C1CCCO1 (centres undefined),-38,-4,-0.5,3,4%,Arbovirus anti repeat=-1
COc1cc(CNCCc2c[nH]c3ccccc23)cc(OC)c1,·,1,-3.8,·,·,
CCc1cc(=O)oc2cc(OC(C)C(=O)NCCCn3ccnc3)ccc12 (centres undefined),·,1,-1.7,·,·,
O=C(Nc1ccccc1)n1ccc(-c2ccc(-n3ccnc3)cc2)n1,·,-3,-2.0,1,-7%,
O=C(NCc1ccccc1)N[C@@H](Cc1ccccc1)C(=O)O,-2,-3,-3.9,14,5%,
S=C(c1ccccc1)N(c1ccccc1)c1ccccc1,-40,-4,4.1,-3,6%,
Cc1ccc(S(=O)(=O)N2C(=S)SCC2(C)C)cc1,-13,·,-4.9,2,6%,Arbovirus anti repeat=-3
COc1ccc([N+](=O)[O-])cc1NC(=O)COC(=O)c1ccc(O)cc1,·,-3,1.4,·,-6%,
CCn1cnc2cc(NCc3ccc(Cl)cc3)ccc21,·,70,-0.5,·,·,
O=C(N/N=C/c1ccco1)C1CC(=O)N(c2ccccc2)C1 (centres undefined),·,1,-1.2,7,2%,
COc1ccc(N(CC(=O)Nc2cc(C)ccc2C)S(=O)(=O)c2c(C)[nH]c(=O)[nH]c2=O)cc1,·,2,1.7,·,·,
O=C(CCl)NCCNC(=O)c1cc(OCC(F)(F)F)ccc1OCC(F)(F)F,·,78,16,24,8%,
Cc1ccc(S(=O)(=O)CC(=O)NC(C)(C)C)cc1,-2,-3,1.4,7,3%,
OCCN(CCO)CC(O)Cn1c2ccccc2c2ccccc21 (centres undefined),-29,7,-1.0,15,-3%,
CCCOc1ccc(C(=O)NNC(=O)c2cccc(S(=O)(=O)N3CCN(C(C)=O)CC3)c2)cc1OC,·,-11,-3.6,·,·,
Cc1nn(-c2ccccc2)c(C)c1C(=O)Oc1ccccc1,·,-4,8.3,·,-15%,
O=S(=O)(c1ccccc1)N1N=C(c2cccs2)CC1c1ccc(Br)cc1 (centres undefined),-21,-4,-1.5,1,0%,
Cc1nn(Cc2ccccc2)c(Cl)c1/C=C/C(=O)OCC(=O)N1CCCC1=O,·,4,0.1,0,-3%,
CCn1c(C)nc2cc(C(=O)N/N=C(\C)c3ccccc3O)ccc21,·,24,-6.0,-16,7%,
COC(=O)c1ccccc1NC(=O)COC(=O)C1CCCCC1,·,0,1.6,·,-2%,
COc1ccc(-n2nc(C(=O)NCC(=O)N3CCN(Cc4ccc5c(c4)OCO5)CC3)c3ccccc3c2=O)cc1OC,·,-1,-0.3,-2,2%,
CC1(C)Cc2c(ccc3ccccc23)/C(=C/C(=O)N2CCCCC2)N1,-1,44,-28,-3,10%,
CCCCN(CC)c1nc(-c2ccncc2)nc2ccccc12,-12,77,14,-27,-3%,
CCOc1cc(CNC2CCCC2)ccc1OCc1ccccc1Cl,·,-7,3.2,-34,-5%,
CCOC(=O)C(CC)Sc1ccc2nnc(-c3cccnc3)n2n1 (centres undefined),·,-5,-2.1,0,-5%,
Nc1n[nH]c(S(=O)(=O)CCCc2ccccc2)n1,-64,8,-1.4,11,0%,
CCC(=O)n1nc(NCc2ccc(OC)c(OC)c2)nc1NCc1ccc(OC)c(OC)c1,-7,3,-2.3,-6,14%,
O=C(CSCCNS(=O)(=O)c1ccccc1)Nc1ccccc1,-38,-3,-2.7,9,2%,Arbovirus anti repeat=2
Cc1noc(NS(=O)(=O)c2ccc(NC(=O)CSc3n[nH]c(-c4ccccc4)n3)cc2)c1C,-7,-11,0.1,6,-14%,
COc1ccccc1/C=C(/C(=O)OCC(=O)Nc1ccccc1C)c1ccccc1,-20,-1,5.4,6,9%,
COc1ccc(CNC(=O)Cn2ccc([N+](=O)[O-])n2)cc1OC,·,-8,-0.3,·,·,
CC(C)c1nnc(NC(=O)c2c(O)c3cccc4c3n(c2=O)CCC4)s1,-35,100,1.5,-1,0.6µM*,
O=C(CCc1n[nH]c(=O)[nH]c1=O)N/N=C/c1ccco1,·,-2,·,6,-10%,
COc1cccc(N2CCN(S(=O)(=O)c3c(C)[nH]c(C)c3C(=O)N3CCCCC3)CC2)c1,·,2,-1.1,·,·,
COc1ccccc1C(=O)N1CCN(CCNC(=O)C(=O)Nc2ccc(Br)c(C)c2)CC1,·,13,-1.1,·,·,
O=C(Nc1ccc(Oc2ccccc2)cc1)C1CCCO1 (centres undefined),-47,-5,0.3,-10,34µM*,
COc1ccc(C(C)=O)cc1COC(=O)CCC(=O)N(CC(C)C)c1c(N)n(CC(C)C)c(=O)[nH]c1=O,·,-17,-2.4,·,·,
Cc1cc(N2CCN(C(=O)/C=C/C(=O)O)CC2)c2ccccc2n1,·,-1,-2.6,·,·,
Cn1c(NC(=O)CCC2CCCCC2)cc(=O)n(C)c1=O,-45,-2,0.8,5,7%,Arbovirus anti repeat=3
CCOC(=O)C1CCN(/C=C2/C(=O)NC(=O)N(c3ccc(OCC)cc3)C2=O)CC1,-50,3,·,5,-4%,Arbovirus anti repeat=1
Cc1ccc(S(=O)(=O)N2CCOCC2)cc1C(=O)NCc1ccc2c(c1)OCO2,-93,6,1.3,-1,-13%,
COc1ccccc1N(C)S(=O)(=O)c1ccc(C(=O)N(CC(N)=O)C(C)C)cc1,2,-2,-0.7,5,0%,
CC(=O)Nc1ccc(S(=O)(=O)N(C#N)c2nc(C)cc(C)n2)cc1,·,-4,-1.3,·,·,

# Overlap with the part before: six entries, followed by the next part.
SMILES,YopH PTP inh,Mtb betalactam,RecA splice inh,Arbovirus anti,Mtb growth,others
Cc1cc(N2CCN(C(=O)/C=C/C(=O)O)CC2)c2ccccc2n1,·,-1,-2.6,·,·,
Cn1c(NC(=O)CCC2CCCCC2)cc(=O)n(C)c1=O,-45,-2,0.8,5,7%,Arbovirus anti repeat=3
CCOC(=O)C1CCN(/C=C2/C(=O)NC(=O)N(c3ccc(OCC)cc3)C2=O)CC1,-50,3,·,5,-4%,Arbovirus anti repeat=1
Cc1ccc(S(=O)(=O)N2CCOCC2)cc1C(=O)NCc1ccc2c(c1)OCO2,-93,6,1.3,-1,-13%,
COc1ccccc1N(C)S(=O)(=O)c1ccc(C(=O)N(CC(N)=O)C(C)C)cc1,2,-2,-0.7,5,0%,
CC(=O)Nc1ccc(S(=O)(=O)N(C#N)c2nc(C)cc(C)n2)cc1,·,-4,-1.3,·,·,
O=C(CCN1C(=O)/C(=C\c2ccccc2Cl)SC1=S)N1CCN(c2ccccc2)CC1,-4,100,12,-23,?,
Cc1cc(C)c(NC(=O)C2CC(=O)N(Cc3ccccc3)C2)c(C)c1 (centres undefined),·,1,0.3,8,-8%,
COc1ccc(S(=O)(=O)Nc2cc([N+](=O)[O-])ccc2OC)cc1,-28,-2,1.0,-17,-3%,
COc1ccc(S(=O)(=O)N2CN(CCc3ccc(OC)c(OC)c3)c3nc4ccccc4nc32)cc1,-10,2,-3.1,2,-6%,
NNc1ncnc2c1cnn2-c1ccccc1,4,100,5.0,-15,?,
CCOc1cc(C(=O)NCCN2CCOCC2)cc(OCC)c1OCC,-26,-11,-1.8,4,-5%,Arbovirus anti repeat=-1
C/C(=N/NC(=O)CSc1ccccn1)c1ccc([N+](=O)[O-])cc1,-13,-3,1.4,-3,-3%,
CCOc1ccc(NC(=O)CSc2nncc(=O)n2N)cc1,·,97,-5.7,·,·,
CC(=O)c1c(C)n(CCO)c2ccc(O)cc12,-28,-3,-5.7,4,-3%,
CCSc1nnc2c(n1)OC(c1ccc(C(=O)O)cc1)N(C(C)=O)c1ccccc1-2 (centres undefined),·,-6,-2.0,1,7%,Arbovirus anti repeat=5
c1coc(CNc2nc3ccccc3n2CCN2CCOCC2)c1,-25,10,0.8,1,-3%,
O=C(NCCCN1CCOCC1)c1cc2ccccc2cc1O,·,-5,-20,·,·,
Oc1ccc(O)c2c1C1c3ccccc3C2c2ccccc21,·,-1,44*,·,·,
O=C(O)c1sc2cc(C(F)(F)F)cnc2c1-c1ccccn1,·,2,0.7,11,-1%,
O=C(N=C1SC2CS(=O)(=O)CC2N1c1ccccc1C(F)(F)F)C1CCCO1 (centres undefined),·,-8,8.5,·,·,
Cc1ccc(NC(=O)CO/N=C(\N)c2nonc2N)cc1C,-5,0,-0.4,-5,-3%,
